Cruzain inh noDet: blocks cruzain activity in detergent-free assay | purified cruzain, Z-FR-AMC fluorescence, no detergent | Potency, µM, inactives show max response, negative = inhibition, usual class: inhibitors | 2.3% of 200,000 active | AID 1476; active = well fitted curve in the direction sought with a large enough effect; inconclusive = small, poorly fitted or top-dose-only effect, or another doubt; inactive = no such curve, though single readings can be large; an effect the other way counts as inactive or inconclusive;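 note: plate controls were enzyme without inhibitor for no effect and buffer without enzyme for full effect; nearly all actives have a fitted effect of over 40% in size; top concentration of the series not given in the record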
Target sequence (P25779 123-467 limits assumed): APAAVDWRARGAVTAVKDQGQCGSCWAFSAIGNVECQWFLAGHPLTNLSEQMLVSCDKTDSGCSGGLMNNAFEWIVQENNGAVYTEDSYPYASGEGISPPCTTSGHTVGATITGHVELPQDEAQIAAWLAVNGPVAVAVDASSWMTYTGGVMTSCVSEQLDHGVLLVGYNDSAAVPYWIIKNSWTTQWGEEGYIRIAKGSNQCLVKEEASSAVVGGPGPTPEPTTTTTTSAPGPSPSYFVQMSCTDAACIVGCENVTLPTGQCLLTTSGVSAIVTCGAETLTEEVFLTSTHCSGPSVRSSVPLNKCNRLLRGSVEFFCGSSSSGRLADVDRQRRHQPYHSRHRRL
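Purified cruzain at 1.5 nM, pre-incubated 15 min with compound at room temperature in 100 mM sodium acetate pH 5.5, 5 mM DTT, 0.00005% Triton X-100. Reaction started with 2 uM Z-FR-AMC; AMC fluorescence increase over 60 s gives rate.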
RE007 growth inh: less growth of the S. pombe RE007 Vpr strain. S. pombe RE007 Vpr strain, BacTiter-Glo ATP luminescence, 24 h; control for the full effect not named in the record. Potency, µM (top dose mostly 92.2 µM), for the others: at the highest dose activity change, negative = less growth. 0.21% of 360,000 active; active = well fitted falling curve with a large enough effect; inconclusive = small, poorly fitted or top-dose-only effect; inactive = no such curve, though single readings can be large or run the other way;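 note: % is set by controls: 0 for no effect and ±100 for the full control effect; nearly all actives have a fitted effect of over 50% in size; the assay follows cell death caused by Vpr and the record does not say whether a fall means rescue or toxicity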
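Fission yeast strain RE007, carrying one chromosomally integrated HIV-1 vpr copy, was seeded at OD 0.01 in PMG+AL medium with 23 nL pinned compound. After 24 h at 30 °C and 99% humidity, viability was read by BacTiter-Glo luminescence.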
Cruzain Triton: cruzain (T. cruzi) inhibition with detergent | P25779 | purified cruzain, Z-FR-AMC fluorescence, 0.01% Triton | Potency, µM, for inactives: max response, negative = inhibition, actives largely listed as inhibitors | 0.43% of 200,000 active; active = well fitted curve in the direction sought with a large enough effect; inconclusive = small, poorly fitted or top-dose-only effect, or another doubt; inactive = no such curve, though single readings can be large; an effect the other way counts as inactive or inconclusive;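 note: plate controls were neutral wells for no effect and buffer without enzyme for full effect; nearly all actives have a fitted effect of over 40% in size; top concentration of the series not given in the record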
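Z-FR-AMC hydrolysis (2 uM substrate) by cruzain (1.5 nM) monitored kinetically at ex 360/em 450 nm after 15 min room-temperature compound exposure; 0.01% Triton X-100, pH 5.5, 5 mM DTT.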
NS1 function inh: influenza NS1 inhibition | Potency, µM (highest dose often 46.1 µM), without a hit: at the top dose activity, positive = more growth | AID 2326 | 0.4% of 270,000 active | S. cerevisiae slowed by influenza A NS1, growth recovery by OD600; note: actives are rising curves; nearly all actives have a fitted effect of over 50% in size
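Growth recovery, yeast-based: influenza A NS1 expressed in S. cerevisiae causes slow growth, and suppressors are detected by OD600. The parent strain without NS1 is used as positive control.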
StopGo reporter: lowers the luciferase signal of an FMDV 2A StopGo reporter; Potency, µM (doses to about 57.9 µM), for inactives: at the top dose signal change, negative = less light; 1.2% of 410,000 active; human cells with a luciferase reporter of 2A StopGo recoding; control for the full effect not named in the record; AID 1159524; active = well fitted falling curve with a large enough effect; inconclusive = small, poorly fitted or top-dose-only effect; inactive = no such curve, though single readings can be large or run the other way; tested in HEK293T cells; note: % is set by controls: 0 for no effect and ±100 for the full control effect; nearly all actives have a fitted effect of over 45% in size; luciferase light after 4 h
LASV entry inh: blocks Lassa virus binding to or entry into cells | Lassa virus pseudotype entry inhibition, cell reporter; control for the full effect not named in the record | Potency, µM (highest dose often 37.9 µM), inactives show at the highest dose activity change, negative = inhibition, hits mostly inhibitors | 1.2% of 300,000 active; active means well fitted inhibition curve with a large enough effect; inconclusive means small, poorly fitted or top-dose-only effect, or effect the other way; inactive means flat fitted curve, though single readings scatter; tested in HEK293 cells; note: % is set by controls: 0 for no effect and ±100 for the full control effect; nearly all actives have a fitted effect of over 50% in size; luciferase read-out
MARV entry inh: inhibitors of Marburg virus binding or cell entry; 1.8% of 300,000 active; AID 540276; Potency, µM (doses to about 37.8 µM), without a hit: top-dose activity change, negative = inhibition, hits mostly inhibitors; Marburg virus pseudotyped entry inhibition, cell reporter; control for the full effect not named in the record; about a third of the inactives were read at about 46 µM; active = well fitted inhibition curve with a large enough effect; inconclusive = small, poorly fitted or top-dose-only effect, or effect the other way; inactive = flat fitted curve, though single readings scatter; tested in HEK293 cells; about a fifth of its hits are not listed in these tables; note: % is set by controls: 0 for no effect and ±100 for the full control effect; luciferase read-out
SARS PLpro yeast: blocks SARS-CoV papain-like protease in a yeast assay | S. cerevisiae expressing SARS-CoV PLpro, growth rescue; control for the full effect not named in the record | Potency, µM (series often up to 32.9 µM), for the others: at the highest dose activity, positive = growth rescue | 0.19% of 330,000 active | AID 485353; note: 0% is about no effect; nearly all actives have a fitted effect of over 55% in size; growth read by luminescence after 48 h
An asterisk follows results filed as active; ? = inconclusive; . = not tested or not shown; & = joins results of further samples; [ ] = remark or other dose. Unless noted, calls come from the whole dose curve; as a rule, active means well fitted rising curve with a large enough effect; inconclusive means small, poorly fitted or top-dose-only effect; inactive means no such curve, though single readings can be large or run the other way. Potency is the fitted concentration of half-maximal effect.

SMILES | Cruzain inh noDet | RE007 growth inh | Cruzain Triton | NS1 function inh | StopGo reporter | LASV entry inh | MARV entry inh | SARS PLpro yeast
O=C(COC(=O)c1ccccc1SCC(=O)NC1CCS(=O)(=O)C1)NC1CCS(=O)(=O)C1 (centres undefined) | . | -5% | . | 5% | 1% | -1% | ? | 0%
O=C(NC(=S)Nc1ccccc1O)c1cccnc1 | . | 6% | . | -46% | 13% | 0%[46.1 µM] | ? | 3%
CC(=O)c1cc(NC(=O)c2ccccc2)c(=O)oc1C | . | -5% | . | 3% | -8% | -1% | 8%[46.1 µM] | 0%
COc1cccc(CN2C(=O)Nc3ccccc3C(=O)N2C(C)(C)C)c1 | -9% | 4% | 1.8% | -4% | 1% | ? | -7% | 2%
Cc1cc(OCc2ccc(C(=O)n3cccn3)o2)ccc1Cl | ? | ? | 7.9µM* | -27% | 17% | 2% | 3% | -24%
COC(=O)C1(CC2CC(c3cccc(Br)c3)=NO2)CCN(C(=O)OC(C)(C)C)CC1 (centres undefined) | . | -4% | . | -66% | -23% | . | . | -7%
N#Cc1ccc(OCC(=O)n2cc(C(=O)c3cc(Cl)cc(Cl)c3O)cn2)cc1 | . | -1% | . | 2% | -4% | . | . | -2%
Cc1cn2c(=O)c(S(=O)(=O)NC(C)c3ccccc3)c(C)nc2s1 (centres undefined) | 3% | . | -4.6% | . | -14% | 1%[46.1 µM] | . | .
O=C(CCC(=O)c1ccc(Cl)cc1)OCC(=O)c1ccccc1 | 5% | -15% | -3.4% | -14% | 1% | 19% | ? | -1%
CCCCc1ccc(C(=O)O)nc1 | 13%&-5%&-2% | -3%[18.4 µM] | 7.7%&15%&0.6% | -38% | -20% | -8% | -1%&-1%&52%&-1%&-1%&-1% | .
CSc1nsc(SCc2ccc(Cl)cc2)n1 | -1% | -10% | 1.8% | 5% | 30%[activator] | 6% | -14% | 3%
O=C(CSc1nc(-c2ccco2)cc(C(F)(F)F)n1)Nc1ccc(C(=O)N2CCOCC2)cc1 | ? | 18% | -6.3% | -1% | -23% | -11% | ? | 5%
Cc1ccc(-c2cccc(C(=O)NCc3ccccc3)n2)c2ccccc12 | -2% | -18% | -2.4% | -18% | -28% | ? | -20% | 7%
COc1ccc(N2CCN(CCCNS(=O)(=O)c3c(C)noc3/C=C/N(C)C)CC2)cc1 | -3% | . | -13% | ? | . | . | -8% | -6%
Cc1ccc(C(=O)N(Cc2ccc(N(C)C)cc2)CC2CCCO2)cc1 (centres undefined) | 5% | . | -2.2% | . | 27% | ? | -9%[46.1 µM] | .
Cc1ccc(NC(=O)C2CCCN(C(=O)c3cnn(-c4ccc(F)cc4)c3-n3cccc3)C2)c(Cl)c1 (centres undefined) | ? | . | -4.8% | . | ? | 13%[46.1 µM] | . | .
CCn1c(=O)c2sccc2n2c(CCC(=O)Nc3ccc(OC)cc3OC)nnc12 | 3% | . | -1.9% | . | -28% | 9%[46.1 µM] | -2%[46.1 µM] | .
CC(=O)N1CCc2c(sc(NC(=O)C3CCCCC3)c2C(N)=O)C1 | . | -6% | . | 0% | -9% | . | . | 6%
COC(=O)c1cc(=O)n(CCc2ccccc2F)c(=Nc2ccc(F)c(Cl)c2)s1 | -12% | -3% | 4.8% | 12% | 16µM* | . | -6% | -2%
Nc1[nH]c(N=NC(=O)c2ccc(Cl)cc2)c2ccccc12 | -10% | 2% | -6.8% | 3% | 16% | 6% | ? | -19%
C/C(=N\Nc1ccc(C(=O)O)cc1)c1ccc2c(c1)Nc1ccccc1S2 | . | -9% | . | 1% | -18% | ? | ? | -4%
CCS(=O)(=O)c1nc2ccccc2n1CC(=O)N1CCOCC1 | -2% | 3% | 4.6% | -4% | 3% | -26% | -25% | -1%
Cn1cc(Br)c(C(=O)N2CCN(c3cccc(Cl)c3)CC2)n1 | 17% | -13% | -0.1% | -6% | -12% | ? | ? | 5%
COCCNC(=S)N(CCc1c(C)[nH]c2ccc(OC)cc12)Cc1ccco1 | . | 20% | . | -1% | -22% | ? | ? | 1%
COc1ccc(Cl)cc1NC(=O)C1CCCO1 (centres undefined) | 4% | 5% | 2.9% | -9% | 7% | -2% | -5%[46.1 µM] | 6%

Next section
SMILES | Cruzain inh noDet | RE007 growth inh | Cruzain Triton | NS1 function inh | StopGo reporter | LASV entry inh | MARV entry inh | SARS PLpro yeast
Cc1ccc(CN(C(=O)COc2ccc(Br)cc2)C2CCS(=O)(=O)C2)o1 (centres undefined) | . | -5% | . | -6% | -17% | . | . | 1%
CN(C(=O)CSc1nc2ccc(NC(=O)COc3ccccc3Cl)cc2s1)c1ccccc1 | 14% | . | -1.8% | . | ? | 17%[46.1 µM] | -7%[46.1 µM] | .
CC(C(=O)NC(=O)NCc1ccccc1)N1C(=O)c2ccccc2C1=O (centres undefined) | -4% | 3% | -5.2% | -3% | -16% | 4% | ? | -1%
CN(C(=O)Cn1nnc(-c2ccccc2)n1)C1CCS(=O)(=O)C1 (centres undefined) | . | -11% | . | . | -15% | 12% | -1% | 3%
CCS(=O)(=O)C(=C1NCCO1)S(=O)(=O)CC | -6% | 14% | 0.1% | 1% | 10% | 4% | 2% | 1%
O=C(Nc1ccc2oc(-c3cccnc3)nc2c1)c1ccc(-c2ccccc2OC(F)(F)F)o1 | -26% | . | -8.4% | . | ? | ? | . | .
CC#CCN1c2ccccc2[C@]23C[C@@H](C(=O)OC)N(C(=O)c4ccco4)C2=NC(C(=O)OC)=C(C(=O)OC)[C@H]13 | . | 0% | . | -9% | -24% | . | . | -1%
OC(CN1CCN(C(c2ccccc2)c2ccccc2)CC1)c1ccc(Br)cc1 (centres undefined) | . | 0% | . | 4% | -7% | . | . | 3%
C=CCn1c(=S)[nH]c2scc(-c3ccc(C)o3)c2c1=O | . | 11% | . | . | 1% | 25% | -27%[46.1 µM] | -1%
COc1ccc(NC(=O)c2ccc(NC3CC(=O)N(c4ccc(C)cc4C)C3=O)cc2)cc1 (centres undefined) | . | 14% | . | 0% | -14% | -22% | ? | 0%
COc1ccc(S(=O)(=O)N2CCN(C)CC2)cc1C | -8% | -8% | 3.4% | ? | -24% | . | . | -6%
C=CCOn1c(C)c(C(C)=O)c2c3nonc3ccc21 | 1% | -13% | -21% | -1% | -29% | -4% | 8% | -5%
CN(C)c1ccc(S(=O)(=O)NCC(=O)N2CCN(S(=O)(=O)c3cccc(F)c3)CC2)cc1[N+](=O)[O-] | . | 20% | . | . | 0% | -7% | ? | .
Cc1cc(/C=C2\C(=N)N3N=C(c4ccco4)SC3=NC2=O)c(C)n1Cc1ccccc1 | . | -15% | . | 13% | -2% | ? | 0%[14.2 µM] | 0%
C=CCn1c(O)c(N=NC(=O)c2cccnc2)c2cc(Br)ccc21 | . | 3% | . | 6% | ? | . | . | -1%
CCC(C)n1c(-c2cccs2)nc2nc3ccccc3nc21 (centres undefined) | 23% | -13% | ? | -93% | ? | ? | ? | -3%
O=C1CC(c2ccco2)Cc2nc(N3CCN(Cc4ccc5c(c4)OCO5)CC3)ncc21 (centres undefined) | 7% | 6% | -4.4% | -8% | -24% | -24% | -25% | -2%
Cc1ccnc(NC(=O)c2ccccc2[N+](=O)[O-])c1 | 1% | -12% | 7.5% | -3% | 36%[activator] | 5% | 3% | 5%
O=C(Cn1cnc2c(cnn2-c2ccc(F)cc2)c1=O)NCCc1ccccc1 | ? | 31% | -0.7% | -33% | -8% | . | . | -14%
O=C(Cn1ncc2c1-c1ccccc1OC2)Nc1ccc(S(=O)(=O)N2CCCCC2)cc1 | -28% | 17% | 0.7% | 1% | -28% | . | . | -4%
Cc1cccc(CS(=O)(=O)c2ncc(Cl)c(C(=O)Nc3nnc(C(C)C)s3)n2)c1 | 2% | -6% | -2.4% | 18% | 8.9µM* | ? | ? | ?
O=C(Cc1ccc(F)cc1)N(c1ccccc1)C1C=CS(=O)(=O)C1 (centres undefined) | -3% | 8% | 1.7% | 0% | . | 2% | 0% | 8%
COc1cc(C(=O)NCCc2ccc3c(c2)OCCO3)ccc1OCC(=O)N1CCOCC1 | 22% | -25% | 2.2% | ? | 4% | 22% | 7%&10% | -1%
O=C(COc1ccccc1)Nc1ccc(S(=O)(=O)N2CCOCC2)cc1 | -7% | -12% | 1.4% | 18% | -11% | -13% | -4% | -1%
CN1CC(=O)N(C)c2ncn(Cc3ccccc3)c2C1=O | 7% | 16% | 0.4% | 2% | -17% | 2% | -10% | 3%
COc1ccc(/C=C/c2nc(C#N)c(NCc3ccc(C)cc3)o2)cc1OC | ? | . | -4.2% | . | -3% | ? | ? | .
